Bioassay records: PubChem, National Center for Advancing Translational Sciences (NCATS)
CtBP-E1A blk: inhibitors of CtBP/E1A interaction | AlphaScreen GST-E1A/His-CtBP binding, 1536-well; hits give low values; control for the full effect not named in the record | activity change, % (concentration not given with the values) | 340,000 compounds, 0.49% hits | AID 651724; in the data active means activity change below about -65%; inconclusive means about -30% to -65%; inactive means above about -30%; note: % is set by controls: 0 for no effect and ±100 for the full control effect
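GST-E1A and His-tagged CtBP (125 nM each as 5X stock) were preincubated with pin-transferred compound for 2 h at 37 °C in the dark, then glutathione donor and nickel acceptor beads were added for 1 h before AlphaScreen reading.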
gsp ag: activates gsp, the McCune-Albright syndrome mutation | gsp mutant cells, cAMP HTRF, 30 min; control for the full effect not named in the record | Potency, µM (top dose mostly 76.9 µM), inactives show top-dose activation (cAMP increase), most hits filed as activators | 340,000 compounds, 0.13% hits; active = well fitted activation curve with a large enough effect; inconclusive = small, poorly fitted or top-dose-only effect, or another doubt; inactive = no such curve, though single readings can be large or run the other way; cell line not stated here;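 note: phosphodiesterase inhibitor Ro 20-1724 added with compounds to block cAMP breakdown; potency is the fitted concentration of half-maximal effect; nearly all actives have a fitted effect of over 60% in size; about a fifth of the inactives were tested at one dose only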
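Cells in DMEM/10% FBS with G418 were pretreated with compounds in DMSO plus […] (300 uM stock) for 30 min at 37C. cAMP was measured by HTRF (cAMP-d2 plus anti-cAMP antibody-K) after 30 min at room temperature.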
gsp antag: antagonizes gsp, the McCune-Albright syndrome mutation; gsp-mutant cells, cAMP HTRF, 30 min; control for the full effect not named in the record; Potency, µM (series often up to 76.9 µM), without a hit: at the top dose activity change, negative = inhibition, usual class: inhibitors; 340,000 compounds, 0.4% hits; active = falling curve of any shape with a large fitted effect; inconclusive = falling curve, mostly with a smaller effect; inactive = flat or rising curve; cell line not stated here;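 note: intracellular cAMP measured with PDE inhibitor Ro 20-1724 present during compound exposure; potency is the fitted concentration of half-maximal effect; % is set by controls: 0 for no effect and ±100 for the full control effect; nearly all actives have a fitted effect of over 65% in size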
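Measurement of cellular cAMP by homogeneous time-resolved fluorescence following a 30 min compound exposure at 37C. The PDE inhibitor […] was present throughout; the assay buffer was DPBS with 0.05% BSA and 0.005% Tween 20.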
Six1-Eya2 inh: inhibitors of human Six1/Eya2 interaction | Q15475+O00167 | activity change, % (no concentration beside the values) | AID 651725 | 360,000 compounds, 0.56% hits | AlphaScreen GST-Six1/His-Eya2 binding, biochemical; hits give low values; control for the full effect not named in the record; in the data active = activity change below about -65%; inconclusive = about -30% to -65%; inactive = above about -30%; note: % is set by controls: 0 for no effect and ±100 for the full control effect
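GST-Six1 + His-Eya2 (5X stock: 250/500 nM); Tris pH 8.0, 300 mM NaCl, 0.05% BSA, 0.02% Tween 20; GSH donor/Ni acceptor beads; 1 h 37 °C dark; AlphaScreen readout.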
D2 potentiator: human D2 receptor positive allosteric modulation; 360,000 compounds, 0.23% hits; P14416; AID 624464; potentiation, % (concentration not given with the values); DiscoveRx D2 beta-arrestin cells, luminescence, 90 min; 100% = 57 uM dopamine signal; active = potentiation of 50% or more; inconclusive = 30% to 50%; inactive = 30% or less;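 note: tested on top of an EC20 dose of dopamine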
Target sequence (P14416 whole entry, looked up): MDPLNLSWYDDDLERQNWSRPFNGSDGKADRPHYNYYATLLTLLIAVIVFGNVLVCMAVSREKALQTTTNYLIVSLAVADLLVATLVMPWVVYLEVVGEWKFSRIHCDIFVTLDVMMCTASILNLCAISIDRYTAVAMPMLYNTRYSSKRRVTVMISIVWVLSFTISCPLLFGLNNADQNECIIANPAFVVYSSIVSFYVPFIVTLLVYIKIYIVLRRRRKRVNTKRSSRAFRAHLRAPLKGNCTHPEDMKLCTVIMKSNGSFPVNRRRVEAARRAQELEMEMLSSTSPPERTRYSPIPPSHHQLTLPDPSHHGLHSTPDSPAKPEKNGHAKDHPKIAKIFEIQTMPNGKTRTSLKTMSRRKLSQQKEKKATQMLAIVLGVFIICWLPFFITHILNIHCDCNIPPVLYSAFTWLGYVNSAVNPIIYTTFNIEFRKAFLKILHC
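D2 cells co-treated with compound plus 50 nM dopamine (EC20) for 90 min at 37 deg C to detect potentiation. Beta-arrestin recruitment was read as enzyme-fragment luminescence after 1 h at ambient temperature. Full response was set by 57 uM dopamine.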
D2 agonist: activates the human D2 dopamine receptor; DiscoveRx PathHunter D2 beta-arrestin, luminescence, 90 min; 100% = 57 uM dopamine signal; activation, % (no concentration beside the values); 360,000 compounds, 0.084% hits; in the data active = activation above about 40%; inconclusive = about 15% to 40%; inactive = below about 15%; note: compound concentration not given in the record; the text of the record calls up to 30% inactive
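DiscoveRx PathHunter D2 beta-arrestin cells (2,100/well) attached overnight, then compound-stimulated 90 min at 37 C in HBSS/10 mM HEPES/0.1% Tween-20 buffer; beta-galactosidase complementation read by luminescence after 1 h at ambient temperature. Dopamine 57 uM final (EC100) as control.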
The depositor's hits bear a star; ? = inconclusive; . = no result given; [ ] = remark or other dose. Outcome played no part in choosing rows. Share with any hit: about 1.4%.

Sequence of screens – D2 agonist, D2 potentiator, gsp antag, gsp ag, CtBP-E1A blk, Six1-Eya2 inh
(1) CCC(=O)Nc1ccc(C(=O)Nc2ccc3c(c2)OCO3)cc1
  -1.7, 0, -14%, -24%, -20, -28
(2) CCOc1ccc(OCc2ccc(C(=O)Nc3ccc(Cl)cn3)o2)cc1
  -1.4, -1, -31%, -31%[inhibitor], 8, -1
(3) COc1ccccc1NC(=O)CCn1cccc1
  -4.5, -6, 3%, ?, 4, -11
(4) COc1ccc(OC)c(S(=O)(=O)N2CCN(C)CC2c2ccccc2)c1 (configuration not stated)
  1.4, -1, 8%, 9%[15.4 µM], -3, -5
(5) CN(C)c1ccc(C(=S)Nc2ccccc2)cc1
  -4.7, -19, 1%, -6%, 2, 2
(6) CCC(C)(C)n1nnnc1C(c1ccccc1F)N1CCC(C(N)=O)CC1 (configuration not stated)
  -6.1, 11, -17%, 14%, -14, 13
(7) NS(=O)(=O)c1ccc(NCC2COc3ccccc3O2)c([N+](=O)[O-])c1 (configuration not stated)
  0.4, -8, -17%, -22%, -10, -12
(8) CN(NC(=O)c1ccccc1F)c1nc(C(F)(F)F)nc2ccccc12
  3.1, 0, 18%, -17%, 5, 2
(9) O=[N+]([O-])c1ccc(CN2CC(N3CC=CC3)CS2(=O)=O)cc1 (configuration not stated)
  -1.9, -5, ., ., 0, 3
(10) Cc1ccc(C(O)P(=O)(OCc2ccccc2)c2ccc(N(C)C)cc2)cc1 (configuration not stated)
  -5.7, -13, -4%, 0%, -24, -14
(11) COC(=O)c1ccc(NC(=O)CCNS(=O)(=O)c2cccc3nonc23)cc1
  -4.1, -6, -3%, 9%, 3, 11
(12) O=[N+]([O-])c1cc2c(cc1[N+](=O)[O-])OCCOCCOCCOCCO2
  1.2, -6, -10%, -4%, -3, -2
(13) CN(C)c1ccc(NC(=O)c2cccc(N3C(=O)CCC3=O)c2)cc1
  3.3, 19, ?, -34%[inhibitor], 11, 0
(14) Cc1sc(-c2cccnc2)nc1OC(=O)C1CC1
  -8.6, -2, -8%, -1%[15.4 µM], 2, 0
(15) CN(C)S(=O)(=O)N1CCN(c2ccc([N+](=O)[O-])c(NC3CC3)c2)CC1
  -4.5, -5, 5%, 2%, -13, -17
(16) Cc1ccc2c(c1)c1nnc(SCC(=O)Nc3cccc(Cl)c3C)nc1n2CC(=O)O
  -6.4, -2, -3%, -6%[15.4 µM], -24, -25
(17) COCCn1c(SCC(=O)Nc2ccc3[nH]c(=O)[nH]c3c2)nc2ccccc21
  4.7, 1, -9%, -15%, 0, -3
(18) COc1ccc(CCNC(=O)C(=O)c2cn(CC(=O)N3CCCC3)c3ccccc23)cc1
  -2.5, -10, ., 18%, 0, 0
(19) O=C(NCCCn1ccnc1)/C(=C/c1ccco1)NC(=O)c1ccccc1
  -2.5, -5, -18%, 9%, -9, -16
(20) CCc1cc(-c2nnn(CCC3COCCO3)c2CC)ccc1-c1cn(Cc2ccc3ccccc3c2)nn1 (configuration not stated)
  -6.1, 0, ., -6%, -7, -6
(21) Cc1ccc(CNC(=O)CCS(=O)(=O)c2ccc3c(c2)NC(=O)CS3)cc1
  1.5, 2, 6%, 11%, 1, 3
(22) Cc1ccc(C(=O)OCC(=O)N2CCCCCC2)cc1S(=O)(=O)N1CCOCC1
  -1.0, -12, -7%, -14%, 20, 6
(23) Cc1cc(NC(=O)CCC(=O)N(Cc2ccco2)C2(C(=O)NC3CCCCC3)CCCCC2)no1
  -3.5, -7, 0%, -28%, -2, 2
(24) O=C(NCC1CCCO1)c1ccc(COCC(F)(F)C(F)F)cc1 (configuration not stated)
  -0.7, 2, 2%, -1%, 66, 23
(25) Cc1cc(C(=O)CSc2nncs2)c(C)n1Cc1ccco1
  2.6, -12, ., -6%[15.4 µM], 22, -10
(26) Cc1cc(SCC(=O)N/N=C/c2ccc(O)c(O)c2)c(C)cc1Br
  7.6, 24, -18%, -39%[inhibitor], 0, 0
(27) COCc1ccc(CN2CCCCC2C(=O)Nc2ccc(Oc3ccccc3)nc2)o1 (configuration not stated)
  4.5, 27, 0%, 0%, 3, 1
(28) CCN(CC)CCn1c(=S)[nH]c2ccc(Cl)cc2c1=O
  -1.3, -15, 7%, 6%, 2, -10
(29) COC(=O)c1ccc2nc(NC(=O)C(C)C)sc2c1
  -0.9, -3, -1%, ?, 0, -3
(30) CCOc1cc(/C=N/O)ccc1OCC(=O)Nc1cccc(C)c1
  2.5, -15, -3%, 16%, -13, -5
(31) O[C@H]1CN(Cc2cccs2)[C@@H](c2ccccc2)C[C@@H]1n1cc(C2CC2)nn1
  -11, -3, ., -11%, -2, -19
(32) CCN(Cc1ccccc1)C(=O)c1ccc(CNS(=O)(=O)c2ccc(C)cc2)cc1
  1.3, 4, ?, -21%, 1, -1
(33) Cc1ccc(S(=O)(=O)N2CCC(C(=O)NCCc3ccccn3)CC2)cc1
  -2.7, -20, -15%, 2%[15.4 µM], -1, 2
(34) CCCCN1CC(=O)N2[C@H]3c4cc(OC)ccc4OC[C@@H]3[C@H](C(=O)OCC)[C@]2(C)C1=O
  -1.7, -8, 0%, -3%, 3, 3
(35) COc1ccc(CN(C(=O)CN2C(=O)COc3ccccc32)C2CCCC2)c(OC)c1
  -4.9, -28, ?, -9%, -19, -8
(36) CC1(C)c2ccccc2N2CC(=O)NC21/C=C/c1ccco1 (configuration not stated)
  -2.9, -9, 5%, 28%, -5, -10
(37) N#Cc1nc(COc2ccccc2Cl)oc1NCc1ccco1
  -2.1, -9, 6%, 5%, -2, -17
(38) O=C1N/C(=C/c2ccc(N3CCOCC3)cc2)C(=O)N1Cc1ccc(F)cc1
  -0.1, 1, 3%, -23%, -11, 5
(39) Cc1cc(N/C=C/C(=O)c2cccs2)ccc1F
  -0.9, -8, -5%, 13%, 9, 14
(40) CC1CCN(C(=S)NC(=O)c2ccco2)CC1
  -0.5, -6, 7%, -27%, 6, 6

In the list so far, these contain fluorine:
Sequence of screens – D2 agonist, D2 potentiator, gsp antag, gsp ag, CtBP-E1A blk, Six1-Eya2 inh
(6) CCC(C)(C)n1nnnc1C(c1ccccc1F)N1CCC(C(N)=O)CC1 (configuration not stated)
  -6.1, 11, -17%, 14%, -14, 13
(8) CN(NC(=O)c1ccccc1F)c1nc(C(F)(F)F)nc2ccccc12
  3.1, 0, 18%, -17%, 5, 2
(24) O=C(NCC1CCCO1)c1ccc(COCC(F)(F)C(F)F)cc1 (configuration not stated)
  -0.7, 2, 2%, -1%, 66, 23
(38) O=C1N/C(=C/c2ccc(N3CCOCC3)cc2)C(=O)N1Cc1ccc(F)cc1
  -0.1, 1, 3%, -23%, -11, 5
(39) Cc1cc(N/C=C/C(=O)c2cccs2)ccc1F
  -0.9, -8, -5%, 13%, 9, 14

Remaining list, next part:
Sequence of screens – D2 agonist, D2 potentiator, gsp antag, gsp ag, CtBP-E1A blk, Six1-Eya2 inh
(41) C#CCOc1c(Br)cc(/C=C2/C(=O)ON=C2C)cc1OCC
  -4.7, -7, -16%, -49%[inhibitor], -2, 3
(42) CC(=O)NC(C)(c1ccccc1)c1nc(-c2ccc(N(C)C)cc2)cs1 (configuration not stated)
  -2.1, -15, ., ., -27, ?
(43) Cc1nnc(Nc2ccc(Cl)cc2)s1
  2.9, -34, -3%, 2%[15.4 µM], -9, -2
(44) CCCc1ccc(-c2cc(NC(=O)CSc3n[nH]c(N)n3)n(-c3ccccc3)n2)cc1
  -3.7, -5, ?, 4%, -10, -3
(45) O=C1CN2C(=Nc3ccc(Cl)cc3C2c2ccccc2)CN1 (configuration not stated)
  -2.1, 5, -1%, 7%, -4, -2
(46) Cc1cc(F)ccc1S(=O)(=O)Nc1ccccc1C(=O)NC1CCN(Cc2ccccc2)CC1
  -2.9, -37, -11%, -19%[15.4 µM], -16, -15
(47) CCOC(=O)c1ccc(NC(=O)CN2C(=O)C(C)SC(C)C2=O)cc1 (configuration not stated)
  -3.2, -4, -3%, 3%, ., -6
(48) CC(=O)Nc1ccccc1C(=O)C(=O)Nc1ccc(F)cc1
  -2.7, -10, 6%, 3%, 9, 4
(49) COc1ccccc1C1N(c2cc(Cl)ccc2OC)C(=O)C2CCCN21 (configuration not stated)
  2.9, -3, 0%, -14%, 3, 1
(50) O=c1c2ccccc2oc2nc(C3CCCCC3)n(Cc3ccco3)c(=O)c12
  -2.4, 18, -4%, 11%, 5, 3
(51) CC(=O)Nc1cccc(Nc2cc(C)nn2C)c1
  -3.9, -3, ., ., 5, 14
(52) CC(=O)Nc1cc(-c2ccccc2N(C)C)cn2c(-c3ccc(S(C)(=O)=O)cc3)cnc12
  3.6, 2, ., ., -4, -6
(53) Cc1cccc(C2=NN(c3ccc(Br)cc3)[C@@H](C(=O)N3CCOC3=O)[C@@H]2c2ccccc2)c1
  -1.3, ., -10%, ., 33, 40
(54) CC1(C)CC2(CC(C)(C(=O)CSc3nc4ccccc4s3)OC2=O)C(=O)O1 (configuration not stated)
  -2.8, -14, -22%, ?, 0, 2
(55) CCc1ccc(CN/C=C/C(=O)c2ccc(Br)cc2)cc1
  -3.3, -16, ?, -5%, 4, 1
(56) COc1cccc(/C=N/NC(=O)c2cc3c(OC)cccc3[nH]2)c1OC
  -0.9, -15, 5%, 9%, -8, -7
(57) COCCNc1nc(NCc2cnc(C)cn2)c2sccc2n1
  -4.3, -5, ., ., 5, 1
(58) N#C/C(=C\c1cc([N+](=O)[O-])c(N2CCCCC2)cc1N1CCCCC1)c1nn(-c2ccccc2)c(N)c1C#N
  -2.4, ?, 0%, -14%, -2, -5
(59) NNC(=O)c1nc(-c2cccc(-n3cccc3)c2)no1
  -3.0, 0, -11%, -9%[15.4 µM], -7, -6
(60) O=C(CN1C(=O)C2C3C=CC(C3)C2C1=O)Nc1ccc(C(=O)O)cc1 (configuration not stated)
  -0.7, -2, -5%, 9%, 1, -1
(61) COCC1CCN(C(=O)c2cc(COc3ccc4c(c3)CCCC4)on2)C1 (configuration not stated)
  2.6, 8, -8%, 11%, -1, 7

Single records, from the list above:
COc1cccc(/C=N/NC(=O)c2cc3c(OC)cccc3[nH]2)c1OC is listed as D2 agonist: -0.9; D2 potentiator: -15; gsp antag: 5%; gsp ag: 9%; CtBP-E1A blk: -8; Six1-Eya2 inh: -7
CC(=O)Nc1cccc(Nc2cc(C)nn2C)c1 is listed as D2 agonist: -3.9; D2 potentiator: -3; gsp antag: .; gsp ag: .; CtBP-E1A blk: 5; Six1-Eya2 inh: 14
